# Beta2AR agonist = agonists of human beta-2 adrenergic receptor inducing internalization; P07550; Am2.2-beta2AR cells, FAP receptor internalization, flow cytometry; reference of the scale not given here; response, % (concentration not given with the values); 0.43% of 340,000 active; AID 504454;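 active means response above a set limit, near 3 SD of response in nonfluorescent compounds, cut at about 42% in these data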;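 further: stock transfer was 100 nL into about 11 µL; a reference agonist was the positive control; negative values mostly stem from fluorescent compounds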
# Target sequence (P07550 whole entry, looked up): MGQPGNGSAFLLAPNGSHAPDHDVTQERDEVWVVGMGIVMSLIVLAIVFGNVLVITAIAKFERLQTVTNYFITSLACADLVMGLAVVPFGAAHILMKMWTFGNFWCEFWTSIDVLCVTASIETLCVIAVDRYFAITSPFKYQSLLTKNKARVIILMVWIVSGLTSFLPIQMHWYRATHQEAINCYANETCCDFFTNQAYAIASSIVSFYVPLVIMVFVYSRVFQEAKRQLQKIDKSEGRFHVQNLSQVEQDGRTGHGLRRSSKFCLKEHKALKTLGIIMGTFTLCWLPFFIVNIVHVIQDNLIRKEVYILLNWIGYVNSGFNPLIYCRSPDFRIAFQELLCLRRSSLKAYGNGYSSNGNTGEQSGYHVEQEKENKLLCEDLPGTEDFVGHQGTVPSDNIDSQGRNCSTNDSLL
# LANA-H2A inh = blocks KSHV LANA binding to histone H2A/H2B; Q9QR71; cell-free LANA-H2A/H2B peptide, fluorescence polarization; inhibition, % (no concentration beside the values); 0.6% of 320,000 active; AID 2629; in the data active means inhibition mostly above about 10%, no sharp cut-off; inactive means mostly below about 6.7%;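 further: stock transfer was 7.5 nL into about 10 µL; 0% = median of vehicle wells and 100% = median of positive control wells; one replicate is shown; the record names a cut of 25% in any replicate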
# UCH37 inh = blocks the human deubiquitinase UCH37; Q9Y5K5; inhibition, % (test concentration not listed); 0.33% of 330,000 active; AID 588478; purified proteasome/UCH37, Ub-AMC cleavage fluorescence;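 active means mean of two replicates above 20%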;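 further: 0% = compound-free wells with enzyme and 100% = wells lacking proteasome; stock transfer was 100 nL into about 20 µL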
#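 Schedule: 30 min plus 25 min, room temperature / Material: human UCH37 within purified proteasomes / Technique: AMC fluorescence intensity at 355/460 nm / Buffer or medium: pH 7.4 Tris-HCl (50 mM) with ovalbumin, ATP-MgCl2, DTT / Controls: wells without proteasome as full block, compound-free enzyme plus substrate as uninhibited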
# Ecoli growth = blocks Escherichia coli growth; AID 1053175; OD600 absorbance (concentration not given with the values); OD600, 23 h; hits give low values; 0.21% of 330,000 active;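 active means OD600 absorbance below the run mean of sample wells minus 3.6 SD, in any replicate, cut at about 0.56 in these data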;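 further: stock transfer was 300 nL into about 60 µL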
# FGF22 binding = FGF22 (human) thermal shift binding. Q9HCT0. recombinant FGF22 thermal shift, SYPRO orange fluorescence; percent of sucrose octasulfate shift, DMSO zero. calls only at 9.99 µM. 1.5% of 340,000 active;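 active means melting point raised past a set limit in the mean and every replicate; three in four hits are not shown here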
# Target sequence (Q9HCT0 whole entry, looked up): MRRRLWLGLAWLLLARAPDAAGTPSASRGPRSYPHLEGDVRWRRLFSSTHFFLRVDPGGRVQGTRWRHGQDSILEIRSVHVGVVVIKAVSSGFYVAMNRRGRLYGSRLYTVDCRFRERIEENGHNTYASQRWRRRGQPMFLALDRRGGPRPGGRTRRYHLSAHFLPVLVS
# ALR H2O2 inh = human ALR oxidase inhibition via reduced H2O2. purified ALR, DTT oxidation, H2O2 HRP-luminol luminescence. 3.8% of 290,000 active. P55789. AID 485317. inhibition, % (no concentration beside the values);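 active means mean and each replicate at 75% or more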;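 further: stock transfer was 7.5 nL into about 7.5 µL; 0% = neutral wells and 100% = wells with inactivated enzyme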
# HNF4A DNA FP = change in binding of human HNF4 alpha to DNA. HNF4a-FITC DNA binding, fluorescence polarization, 1 h. activity change, % at 10 µM. 0.3% of 360,000 active. P41235; in the data active means activity change above about 30%, passing the limit was not always enough;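 further: controls were the assay level and a saturating level of protein; the project sought stronger binding though the title names inhibitors; some compounds called inactive have numbers as strong as hits; positive values seem to mean higher polarization but the record does not say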
# Target sequence (P41235 whole entry, looked up): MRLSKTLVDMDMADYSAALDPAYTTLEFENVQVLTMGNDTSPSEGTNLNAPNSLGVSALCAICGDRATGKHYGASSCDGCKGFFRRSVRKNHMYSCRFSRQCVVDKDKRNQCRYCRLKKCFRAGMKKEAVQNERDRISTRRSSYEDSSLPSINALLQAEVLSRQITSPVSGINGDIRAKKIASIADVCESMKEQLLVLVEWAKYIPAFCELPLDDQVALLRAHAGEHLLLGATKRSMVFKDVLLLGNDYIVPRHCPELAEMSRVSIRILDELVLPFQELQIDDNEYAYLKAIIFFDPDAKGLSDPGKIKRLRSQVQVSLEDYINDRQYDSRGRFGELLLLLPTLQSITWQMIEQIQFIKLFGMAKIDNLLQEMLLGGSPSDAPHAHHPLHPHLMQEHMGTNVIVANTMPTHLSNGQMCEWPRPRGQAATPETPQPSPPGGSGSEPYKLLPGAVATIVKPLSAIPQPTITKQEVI
# Starred values were filed as active, the others as inactive; i = inactive; nt = not tested or not shown. An excerpt; the hit share may differ from the screen's.
# The opening 3 entries, to show the layout:
Ecoli growth	FGF22 binding	UCH37 inh	HNF4A DNA FP	Beta2AR agonist	ALR H2O2 inh	LANA-H2A inh	mol
0.65	i	3.9	-1.0	-17	-5	-7.2	CCC(=O)N1N=C(c2ccccc2)CC1c1ccc([N+](=O)[O-])cc1 (centres undefined)
0.64	i	5.5	2.1	-3	-9	-0.3	O=C(CSc1ccc([N+](=O)[O-])cn1)Nc1ccccc1N1CCOCC1
0.79	nt	-2.8	0.7	2	-23	-3.8	Cc1ccc(-n2ncc3c(NCc4ccccc4)ncnc32)cc1

# All compounds of this part (from the top)
Ecoli growth	FGF22 binding	UCH37 inh	HNF4A DNA FP	Beta2AR agonist	ALR H2O2 inh	LANA-H2A inh	mol
0.65	i	3.9	-1.0	-17	-5	-7.2	CCC(=O)N1N=C(c2ccccc2)CC1c1ccc([N+](=O)[O-])cc1 (centres undefined)
0.64	i	5.5	2.1	-3	-9	-0.3	O=C(CSc1ccc([N+](=O)[O-])cn1)Nc1ccccc1N1CCOCC1
0.79	nt	-2.8	0.7	2	-23	-3.8	Cc1ccc(-n2ncc3c(NCc4ccccc4)ncnc32)cc1
nt	i	nt	-2.4	19	nt	nt	O=c1[nH]c2cc([N+](=O)[O-])ccc2c2ccc([N+](=O)[O-])cc12
0.69	nt	-0.1	-2.7	-3	nt	0.5	O=C(Nc1ccccc1N1CCCC1)c1ccc2c(c1)OCO2
0.68	i	-93	2.5	5	0	8.8	N=c1c(S(=O)(=O)c2ccccc2)cc2c(=O)n3ccccc3nc2n1CCCN1CCOCC1
0.64	i	0.9	1.0	1	40	2.9	Cc1ccccc1N1CCN(C(=O)[C@@H]2CCCN2C2=NS(=O)(=O)c3ccccc32)CC1
nt	i	-0.5	-2.1	-6	-9	-7.1	O=S(=O)(/C=C/c1ccccc1)N1CCN(Cc2ccccc2)CC1
0.69	i	5.0	0.6	7	nt	nt	O=C(C=Cc1ccco1)c1cc(Cl)ccc1O
0.69	nt	1.9	-3.5	3	nt	2.9	COC(=O)c1cccc(NC(=O)CCCOc2ccccc2)c1
0.62	i	5.6	nt	nt	-12	-2.2	COc1ccc2[nH]c(C)c(C(=O)CN(C)CC3OCCO3)c2c1
0.67	i	2.1	1.6	-7	-30	2.5	Cc1nn(CC(=O)c2ccc3c(c2)OCCO3)c(=O)c(C#N)c1C
0.63	i	4.0	1.5	7	nt	5.1	Cc1ccccc1NC(=O)CCCCC(=O)Nc1ccccc1C
0.62	i	1.4	1.8	-8	-9	2.3	Cc1[nH]c2ccccc2c1C(=O)CSc1ccc(F)cc1
0.69	i	2.9	1.9	-4	-35	2.5	O=C(NCc1ccccc1)C1CCC(=O)N(CC2CCCCC2)C1 (centres undefined)
0.73	nt	3.1	0.9	1	41	-6.3	Cc1[nH]n2c(=O)c3c(nc2c1-c1ccccc1)CCC3
nt	nt	nt	2.1	5	nt	-1.8	Cc1ccc(/C=N/N=C/c2ccc(C)s2)s1
0.62	i	1.4	-1.6	-2	2	-4.7	Cc1c(-c2ccc(F)cc2)[n+](=O)c2c(n1[O-])CCCCC2
0.7	i	5.2	0.8	-5	0	1.3	N#CC1C(C#N)N2CCCN2C1c1ccc(Br)cc1 (centres undefined)
0.67	i	2.0	2.7	-2	3	-3.6	Cn1ncc(Cl)c1C(=O)N1CCN(c2cccc(Cl)c2)CC1
0.73	nt	-8.5	1.4	-9	-10	2.8	CC(C)SCc1nc2ccccc2[nH]1
0.63	i	1.4	-1.7	-7	98*	2.0	Cc1ccc(NNC(=O)C2CCC2)cc1C
0.71	nt	-3.2	1.2	1	-9	0.7	CC(C)Nc1nc(Oc2ccc(Cl)cc2Cl)cc(C(F)(F)F)n1
0.68	i	4.8	-1.5	-599	-4	-2.0	COc1ccc(C(=O)NNC(=O)C2(C)CC2(Br)Br)cc1 (centres undefined)
0.7	i	1.1	0.3	2	-8	2.5	COc1ccc(CNC(=O)CN(c2ccccc2)S(=O)(=O)c2ccccc2[N+](=O)[O-])cc1
0.69	i	1.2	-1.7	-2	-3	1.3	CN(C(=O)COC(=O)c1cncc(Br)c1)C1CCS(=O)(=O)C1 (centres undefined)
0.69	i	0.8	2.8	-3	28	2.4	Cc1ccccc1NC(=O)COC(=O)CCc1nc2ccccc2c(=O)[nH]1
0.71	i	-0.9	0.4	7	nt	-4.2	COc1ccc(NC(=O)c2[nH]c(C)c(C(C)=O)c2C)cc1S(=O)(=O)Nc1ccc(Br)cc1
0.66	nt	0.1	-3.2	-2	-19	1.1	Cc1ccc(S(=O)(=O)n2nc(C)cc2C)cc1
0.7	i	-1.5	-5.5	-6	0	0.8	O=C(NC1CCCC1)c1ccc(CS(=O)(=O)c2ccc(Cl)cc2)o1
0.67	i	3.0	0.4	-1	0	-1.4	CCOC(=O)C[N+]1(C)CCN(C(C)=O)CC1
0.66	i	-4.1	3.5	-15	-3	1.2	COc1cc(NC(=O)c2ccccc2)c(OC)cc1NC(=O)Cc1ccc(F)cc1
0.7	i	3.7	-3.8	3	3	-1.3	C=CCn1c(C)cc(C(=O)Cn2nc(C(=O)O)c3ccccc3c2=O)c1C
0.68	nt	-2.5	1.7	-8	-3	7.7	COc1ccc(-c2cc(C(=O)NCCN3CCOCC3)c3ccccc3n2)c(OC)c1
0.71	i	3.1	-11	10	-3	1.2	Cc1cccc(N2CC(C(=O)Nc3nnc(SCc4cccnc4)s3)CC2=O)c1 (centres undefined)
0.68	i	2.4	2.0	0	nt	-1.9	COCCCN=CC1=C(O)CC(c2ccccc2)CC1=O (centres undefined)
0.64	i	2.4	-2.9	-4	nt	nt	O=C(NCCC1CCCCN1S(=O)(=O)c1ccccc1)C(=O)NCc1ccco1 (centres undefined)
0.69	nt	-1.3	2.5	-1	nt	-0.3	COc1ccc(NC(=S)N2CCN(C/C=C/c3ccccc3)CC2)c(OC)c1
0.69	nt	5.8	-2.1	-10	3	2.9	CCOc1ccc(C(C)=O)cc1COC(=O)C1=COCCO1
0.68	i	5.4	3.9	-6	21	0.9	COc1ccc(CN2C(=O)c3cccnc3C2=O)cc1S(=O)(=O)N1CC(C)CC(C)C1 (centres undefined)
0.72	nt	0.1	-2.1	18	-3	-1.3	Cc1c(Br)c(=O)[nH]c(=O)n1COCc1ccccc1
nt	i	0.3	-2.0	-1	-5	2.7	C[C@@H]1CN([C@H](C)CO)C(=O)c2cc(NC(=O)Cc3cn(C)c4ccccc34)ccc2O[C@H]1CN(C)C(=O)Nc1ccc2c(c1)OCO2
0.66	i	-2.8	-2.2	6	36	11	O=C(Nc1ccnn1C1CCN(C(=O)c2cc(Cl)ccc2F)CC1)C1CCOC1 (centres undefined)
0.76	nt	-7.1	-1.1	-7	-6	-2.8	CCCn1c(=O)c2ccccc2n2c(SCC(=O)c3ccc(CC)cc3)nnc12
0.68	i	5.6	1.3	-5	nt	-0.8	COc1ccc2c(=O)c(C(=O)NCc3ccccc3)c[nH]c2c1
0.68	i	-21	-5.8	-11	5	-1.6	COC(=O)c1ccccc1OC(=O)c1cc2ccccc2oc1=O
0.73	i	2.7	-2.6	7	-1	1.3	CC(=O)c1ccc(N2CCN(C(=O)/C=C/c3ccc(S(=O)(=O)NCc4ccco4)cc3)CC2)cc1
0.67	nt	5.6	-0.9	-11	-8	0.1	CCn1cc(C(=O)Nc2ccc(C)cc2[N+](=O)[O-])c(C)n1
0.74	i	-49	3.1	-3	0	-0.5	COc1cccc(-c2cc3nc4c(c(N5CCC6(CC5)OCCO6)n3n2)CCCC4)c1
0.7	i	4.3	-0.5	0	68	0.5	O=C(CC(C(=O)O)c1c[nH]c2ccccc12)c1ccccc1 (centres undefined)

# Full records, quoted from the list:
# `COc1cccc(-c2cc3nc4c(c(N5CCC6(CC5)OCCO6)n3n2)CCCC4)c1` is entered as Ecoli growth: 0.74; FGF22 binding: i; UCH37 inh: -49; HNF4A DNA FP: 3.1; Beta2AR agonist: -3; ALR H2O2 inh: 0; LANA-H2A inh: -0.5
# `CC(=O)c1ccc(N2CCN(C(=O)/C=C/c3ccc(S(=O)(=O)NCc4ccco4)cc3)CC2)cc1` is entered as Ecoli growth: 0.73; FGF22 binding: i; UCH37 inh: 2.7; HNF4A DNA FP: -2.6; Beta2AR agonist: 7; ALR H2O2 inh: -1; LANA-H2A inh: 1.3

# (next part)
Ecoli growth	FGF22 binding	UCH37 inh	HNF4A DNA FP	Beta2AR agonist	ALR H2O2 inh	LANA-H2A inh	mol
0.71	nt	0.1	1.0	-2	-12	5.6	CC(C)(O)c1cc(=O)sc2nc3ccccc3n12
0.66	i	3.3	-9.3	-6	-3	-2.5	Cc1cccc(Nc2nc(N)c([N+](=O)[O-])c(N3CCC(C)CC3)n2)c1
0.76	i	5.4	-0.5	7	35	-0.2	CC1=C(C(=O)NC2CCCC(C)C2C)C2(CCCCC2)OC1=O (centres undefined)
nt	i	2.3	0.8	0	nt	-1.8	CN1CCN(C(=O)C2=C[C@H](c3ccc(C(F)(F)F)cc3)C[C@H](OCCCCO)O2)CC1
0.74	i	5.4	10	-22	nt	0.2	CC(C)Cc1cc(C(=O)Nc2sc3c(c2C#N)CCCC3)no1
0.66	i	1.1	-9.3	2	-6	1.5	COc1ccc(OC)c(C2NC(=O)CCC2[N+](=O)[O-])c1 (centres undefined)
0.73	nt	-0.6	-4.0	-2	nt	nt	CSc1nnc2c3ccccc3c3ccccc3c2n1
0.71	i	1.9	-0.6	-3	87*	4.8	O=C(CS(=O)(=O)c1ccccc1)Nc1nnc(Cc2ccccc2)s1
0.71	nt	-2.4	-0.4	1	98*	-0.4	Cc1ccc(NC(=O)CSCC(=O)Nc2ccc(N3CCOCC3)c(Cl)c2)cc1
nt	i	nt	-4.0	-7	1	-3.3	C/C(=N\NC(=O)Cc1ccccc1)c1ccc(Cl)s1
0.69	i	2.7	3.1	35	-17	-1.7	COc1ccc([N+](=O)[O-])c(OC)c1C(=O)NC(=O)Nc1c(C)cccc1C
0.72	i	1.8	-5.1	4	nt	-2.3	Cc1ccc(CN2CCNC(=O)C2CC(=O)N(C)C2CCCCC2)o1 (centres undefined)
0.65	i	6.0	-1.4	5	nt	-4.1	CCOC(=O)C1CCCN(c2c(NCCN(CC)c3ccccc3)c(=O)c2=O)C1 (centres undefined)
0.72	nt	-2.3	-1.7	-4	66	0.4	Cc1ccccc1NCc1nnc2n1CCCCC2
0.7	nt	3.6	1.4	1	67	1.9	CCCCCC(=O)NC(=S)Nc1ccccc1C(=O)OC
0.73	nt	0.6	-1.3	10	-16	-7.0	CCC(CC)c1nnc(NC(=O)Oc2ccccc2)s1
0.64	i	1.6	0.1	-4	8	-1.8	O=C(CN1C(=O)c2ccccc2C1=O)Nc1cccc(O)c1
0.68	nt	-3.4	-0.8	-4	-13	2.8	CCC(=O)N1CCNC(=O)C1CC(=O)Nc1ccc(C)c(Cl)c1 (centres undefined)
0.66	i	4.8	-0.5	-9	-3	-4.4	CCOc1ccc(NC(=O)CSC2=NN3CCCC(=O)N=C3S2)cc1
0.69	i	12	3.5	-8	28	0.1	COc1ccc(C2/C(=C(/O)c3ccc(C)cc3)C(=O)C(=O)N2CCCN2CCOCC2)cc1 (centres undefined)
0.72	nt	3.0	-2.2	7	-18	2.7	Cc1cc(C)n(-c2ccc(C(=O)Nc3ccccc3N3CCOCC3)cc2)n1
0.67	i	-1.9	2.6	-7	-5	-2.9	O=S(=O)(c1ccc(OC(F)(F)F)cc1)N1CCCC(N2CCOCC2)C1 (centres undefined)
0.65	i	7.7	-1.1	6	3	0.2	Cc1cc(C)c(C(=O)/C=C/c2ccc(C(C)C)cc2)c(=O)[nH]1
0.7	i	1.2	-1.3	-2	-6	2.1	O=C(O)C(NS(=O)(=O)c1ccc(F)cc1)c1ccccc1 (centres undefined)
0.64	i	0.8	-6.1	3	3	-2.3	O=C(OCCN1CCCCC1)c1ccccc1F
0.67	i	-1.8	1.7	2	nt	5.0	CNC(=S)NNC(=O)c1cccn(Cc2cccc(C(F)(F)F)c2)c1=O
0.73	nt	5.4	2.5	1	nt	3.2	O=C(NCc1cccnc1)C1CCN(C(=O)c2ccc(Cl)cc2Cl)CC1
0.68	i	3.7	-0.1	4	-34	0.4	O=C(Nc1ccc(S(=O)(=O)N2CCOCC2)cc1)c1cc([N+](=O)[O-])ccc1Cl

# From PubChem BioAssay
